NPYLR7 ag: mosquito NPYLR7 agonism. HEK293T NPYLR7/Galpha15, GCaMP6s calcium fluorescence. activation, % at 10 µM. 270,000 tested, 0.15% active. AID 1259423; in the data active = activation above about 40%;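 note: 0% = vehicle and 100% = reference agonist at the receptor; some compounds past the cut are filed as inactive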
NPYLR7 ag max-min: also measured in NPYLR7 ag; calls as there; activation, %; measured here: Max-Min RFU normalised activation; some inactives read as strong as hits;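 span of the calcium signal over five minutes; 0% = vehicle and 100% = native peptide agonist; compound fluorescence can raise it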
The depositor's hits bear a star; & = joins results of further samples. Some of the compounds tested; rates above refer to the full screens.

SMILES	NPYLR7 ag	NPYLR7 ag max-min
CCCN(CC(=O)N1CC(=O)N(c2cccc(C)c2)C1)C(=O)Nc1c(C(C)C)cccc1C(C)C	-2	5
O=C(NCCCn1cccn1)c1cccc2[nH]c(-c3cccs3)nc12	-1	-3
Cc1ncc([N+](=O)[O-])n1CCNC(=O)c1cc(F)ccc1C(F)(F)F	-7	-13
COc1cc(S(=O)(=O)NCc2ccc3c(c2)OCO3)c(C)cc1C	-15	-15
O=C(NC1CC(=O)N(Cc2cccc(F)c2)C1)c1cnn2ccccc12 (stereo unspecified)	0	10
CC(C)Cc1noc(C(C)NC(=O)c2cc3sccc3[nH]2)n1 (stereo unspecified)	2	2
Cc1cc(C(=O)COC(=O)COc2ccc(Cl)cc2Br)c(C)n1Cc1ccco1	-8	-15
CCOc1ccc(CC(=O)Nc2nn(C)c3c2C(C)CC(=O)N3)cc1 (stereo unspecified)	-16	-19
Cc1ccc(-c2ccc(=O)n(CC(=O)N3CCCC3)n2)cc1C	12	7
O=C(Nc1ccc(F)cc1)C1CC(=O)N(CCO)C(=Nc2ccccc2)S1 (stereo unspecified)	1	-1
N#CC(=Cc1ccccc1Br)c1ccccn1	1	-1
COc1cccc(OC)c1-c1cnnc(NCc2ccccc2-n2cncn2)n1	-1	-3
O=C(C1CCCN(c2nc(Cc3ccc(Cl)cc3)ns2)C1)N1CCN(c2ccccc2Cl)CC1 (stereo unspecified)	-3	11
CCc1nnnn1-c1ccccc1NC(=O)C1CCCO1 (stereo unspecified)	7	4
O=S(=O)(c1ccc(F)cc1)N1CCCC(N2CCCC2)C1 (stereo unspecified)	1	12
CCc1nc(C)sc1CNC(=O)C1CC(=O)N(Cc2ccccn2)C1 (stereo unspecified)	-3	-5
CN(CC(=O)Nc1ccc(Cl)c(C(F)(F)F)c1)c1nc2ccccc2o1	7	2
Cc1ccc2c(c1)N(C)C(=O)c1cc(NS(=O)(=O)CBr)ccc1O2	7	2
Cc1cc(=O)c(OCc2ccc(F)cc2)cn1CC(=O)N1CCc2ccccc21	11	7
CCOC(=O)c1c(C)nn(-c2ccc(C(=O)NN(C)c3ccccc3)cc2)c1C	3	4

Filtered by structure, those above with a Cl atom (3)
SMILES	NPYLR7 ag	NPYLR7 ag max-min
Cc1cc(C(=O)COC(=O)COc2ccc(Cl)cc2Br)c(C)n1Cc1ccco1	-8	-15
O=C(C1CCCN(c2nc(Cc3ccc(Cl)cc3)ns2)C1)N1CCN(c2ccccc2Cl)CC1 (stereo unspecified)	-3	11
CN(CC(=O)Nc1ccc(Cl)c(C(F)(F)F)c1)c1nc2ccccc2o1	7	2

Later entries
SMILES	NPYLR7 ag	NPYLR7 ag max-min
COc1cc(C)c(C)cc1S(=O)(=O)NCCc1csc2nc(-c3ccccc3F)nn12	-9	-8
O=C(c1cccc(C(F)(F)F)c1)N(CC(=O)N1CCc2sccc2C1c1ccc(Cl)cc1Cl)C1CC1 (stereo unspecified)	-1	4
CC(C)(C)C1CCC(NC(=O)c2ccc(CSc3ccc4ccccc4n3)cc2)CC1 (stereo unspecified)	2	-6
COc1cccc(Cn2nc(C(=O)NC3CC3)c3c2CCN(C(=O)c2ccc(-c4ccco4)cc2)C3)c1	9	-3
CCCc1nnc(SCc2cc(C)on2)n1CC(=O)O	-2	-4
Cc1ccc(NC(=O)N2CCC(C(NC(=O)c3ccccc3)C(=O)NCc3ccccc3)CC2)cc1 (stereo unspecified)	4	2
Fc1ccc(-c2nc3ccccn3c2NC2CCCCC2)cc1	-5	2
O[C@@H]1CN(c2nccc(C(F)(F)F)n2)CC[C@H]1c1ccc2c(c1)OCO2	7	4
OC(CN1CCOCC1)CN(Cc1ccc(F)cc1)CC1CC(c2ccccc2)=NO1 (stereo unspecified)	-3	4
CN(C)c1ncc(-c2nccn2CCn2ccnc2)cn1	1	-7
Cc1cc(Br)c(NC(=O)CSc2nccn2C)c(Br)c1	-1	-3
O=C1N=C2OC=C(C(=O)Nc3ccccc3)N2CCN1	1	-2
CCC(C(=O)Nc1cc(C)ccc1C)n1nnc(C(=O)O)c1C(=O)O (stereo unspecified)	-6	-12
Cc1cc(NC(=O)c2cc(C)on2)n(-c2nc3ccc(F)cc3s2)n1	-6	-11
COc1ccc(N2C(=O)C(=O)C2c2ccc(C)cc2)cc1 (stereo unspecified)	5	6
CCC(=O)Nc1nnc(-c2cc(C)nn2C)o1	-4	-4
COc1ccc(N2C(=O)c3ccccc3NC2c2cc(Br)ccc2O)cc1 (stereo unspecified)	4	4
O=C(Cc1ccc(F)cc1)N1CCC2(CC1)OCc1ccccc1O2	3	-6
CCOCc1ccccc1CNS(=O)(=O)c1sc(C)nc1C	0	-3
CC(C)c1noc(CCC(=O)NCC2CCC(C(N)=O)CC2)n1 (stereo unspecified)	-1	-2
CCOc1cccc(Oc2ccc(CN3CCCC3)cc2OC)c1	-2	-15
CC(c1cccc(-c2ccc3[nH]cc(C(=O)O)c(=O)c3c2)c1)N1CCCC1 (stereo unspecified)	5	5
COCCNC(=O)c1coc(CN(Cc2cc(C)ccc2C)C(C)c2ccccc2)n1 (stereo unspecified)	-8	-3
CCCS(=O)(=O)N1CCN=C1SCc1cccc([N+](=O)[O-])c1	10	9
Cc1csc2nc(-c3ccccc3)cn12	18	27
Cn1c(=O)[nH]c(=O)c2c1nc(NC1CCCCC1)n2CC(=O)c1ccccc1	14	4
COCCn1c(-c2ccc(NC(C)=O)cc2)nc2c1c(=O)[nH]c(=O)n2CC(C)C	0	1
NC(=O)C[n+]1cccc(/C=N\O)c1	-1	-3
Cc1nc2n(n1)C(=O)C(C(c1ccco1)N1CC(C)OC(C)C1)S2 (stereo unspecified)	1	-3
Cc1cc(NC(=O)c2ccc(S(=O)(=O)N3CCc4ccccc4C3)cc2)n(C)n1	0	14

Reprinted from the part before: 5 compounds, then new ones.
SMILES	NPYLR7 ag	NPYLR7 ag max-min
Cn1c(=O)[nH]c(=O)c2c1nc(NC1CCCCC1)n2CC(=O)c1ccccc1	14	4
COCCn1c(-c2ccc(NC(C)=O)cc2)nc2c1c(=O)[nH]c(=O)n2CC(C)C	0	1
NC(=O)C[n+]1cccc(/C=N\O)c1	-1	-3
Cc1nc2n(n1)C(=O)C(C(c1ccco1)N1CC(C)OC(C)C1)S2 (stereo unspecified)	1	-3
Cc1cc(NC(=O)c2ccc(S(=O)(=O)N3CCc4ccccc4C3)cc2)n(C)n1	0	14
COc1ccc(-c2cnoc2-c2ccc(OC)cc2O)cc1	5	1
CC(C)NC(=O)N1CCCCCC1C1CCN(Cc2ccc(C#N)cc2F)CC1 (stereo unspecified)	8	3
N#Cc1ccnc(OCC(F)F)c1	0	1
c1ccc(Cc2nc(-c3cccc(Cn4cccn4)c3)n[nH]2)cc1	-4	-5
CCc1cccc(OCC(O)CNC2CCN(Cc3ccccc3)CC2)c1 (stereo unspecified)	1	-2
COc1ccc(/C=C2/SC(=S)N(CC(=O)O)C2=O)cc1OCc1ccc(Cl)cc1Cl	9	6
COC(=O)c1ccc(N2CCN(Cc3nc(Cc4cccc(F)c4)no3)CC2)cc1	11&-5	6&-2
CCc1ccccc1N1CCN(C(=O)Nc2cccc(Cl)c2)C(C)C1=O (stereo unspecified)	21	31
CC(=O)N1CCN(c2ncccc2CNC(=O)c2cc(-c3ccccc3)n[nH]2)CC1	7	8
COc1ccc(CN2C(=O)CC(C(N)=O)SC2=Nc2ccccc2)cc1 (stereo unspecified)	-10	-14

Single values from the entries so far:
NPYLR7 ag, COc1ccc(/C=C2/SC(=S)N(CC(=O)O)C2=O)cc1OCc1ccc(Cl)cc1Cl → 9
NPYLR7 ag max-min, c1ccc(Cc2nc(-c3cccc(Cn4cccn4)c3)n[nH]2)cc1 → -5

Going on with the list:
SMILES	NPYLR7 ag	NPYLR7 ag max-min
COc1cccc(Cn2c(C(=O)N3CCN(C(=O)Nc4ccc(C(F)(F)F)cc4)C(C)C3)cc3ccoc32)c1 (stereo unspecified)	6	11
COC[C@H]1C[C@H]2C[C@@H](OC)[C@H](N3CC(F)(F)C3)[C@]2(O)CO1	2	6
COc1cccc(CNC(=O)N2CCC(Cn3cc(CO)nn3)CC2)c1	0	-4
Cc1ccc(O)c(C(=O)CC(O)(c2ccccc2)C(F)(F)F)c1 (stereo unspecified)	-4	-3
CSc1ccc(C(=O)N2CCC(n3cnc4cc(C(F)(F)F)ccc43)CC2)cc1	1	-1
Cc1ccc(S(=O)(=O)N2CCCC(N3CCN(c4ccccc4F)CC3)C2)cc1 (stereo unspecified)	0	7
Cc1cc(C(=O)N(CCCN2CCOCC2)c2nc3c(F)cccc3s2)n(C)n1	2	0
Cc1ccc(NC(=O)NC(=O)CSc2nnc3ccccn23)cc1C	18	8
Clc1ccc(C=NNC2=Nc3cccc4cccc2c34)cc1	-6	-6
CCC(C)C(=O)NC(C)c1ccc(-c2csc(C)n2)cc1 (stereo unspecified)	1	0
COc1ccc(C(C)NC(=O)c2cc(Cl)ccn2)c(OC)c1 (stereo unspecified)	-26	-27
C=CCn1c(C)c(C)n2c3c(=O)n(Cc4cccc(C)c4)c(=O)n(C)c3nc12	3	1
O=C(c1ccco1)N1CCC(c2nc(-c3ccccc3F)no2)CC1	8	0
O=C(c1nc2ccccc2s1)N(CCN1CCOCC1)c1nc2c(F)cccc2s1	19	14
Cc1ncsc1CCN(C)Cc1ccccn1	11	6
CCC1(c2ccccc2)NC(=O)N(NC(=O)Cn2cnc3sc(-c4ccccc4)cc3c2=O)C1=O (stereo unspecified)	4	11
CC(C)(C)c1noc(CCCC(=O)NCc2ccccc2N2CCCC2)n1	-9	-10
Cn1nnc2c(SCC(=O)N3CCC(Cc4ccccc4)CC3)ncnc21	1	7
Cc1noc(-c2cccc(C(F)(F)F)c2)c1C(=O)NCCc1cnc[nH]1	4	3
CC12CCC3C(CC3(C)C)C(C)(CCC1=O)O2 (stereo unspecified)	-12	-17
CCCc1nc(CNC2CCSCC2)cs1	3	1
COc1cc(C(=O)NCC2(c3ccccc3)CC2)ccc1C	0	-1
CN(Cc1cn(C)nc1-c1cccc(Cl)c1)CC1Cc2ccccc2O1 (stereo unspecified)	17&-4	6&-5
COc1ccc(-c2cc(C(=O)NCCCN3CCCCC3C)c(C)n2-c2ccccc2F)cc1 (stereo unspecified)	-12	-14
COC(=O)C1=C(C)NC2=C(C(=O)CC(c3ccc(OC)cc3)C2)C1c1cccc2ccccc12 (stereo unspecified)	17	8
CC(NC(=O)c1ccoc1)c1ccc(OC(F)F)cc1 (stereo unspecified)	-2	-3
CSc1ccsc1C(=O)NCc1ccc(C(=O)NC2CC2)cc1	8	5
COc1cc(NC(=O)Nc2cc(C)on2)c(OC)cc1Cl	0	-1
Cn1cc(Br)c(C(=O)N2CCC(Cc3ccccc3)CC2)n1	18	24
CCN(CC)c1ccc2cc(-c3nnc(Nc4ccc(F)cc4)s3)c(=O)oc2c1	5&8	-1&0

A different layout for some results above:
Below each compound – NPYLR7 ag	NPYLR7 ag max-min
- CSc1ccsc1C(=O)NCc1ccc(C(=O)NC2CC2)cc1
  8	5
- COc1cc(NC(=O)Nc2cc(C)on2)c(OC)cc1Cl
  0	-1
- Cn1cc(Br)c(C(=O)N2CCC(Cc3ccccc3)CC2)n1
  18	24

Later entries.
SMILES	NPYLR7 ag	NPYLR7 ag max-min
Cn1c(SCC(=O)Nc2ccc3c(c2)OCO3)nc2c(-c3ccccc3)c[nH]c2c1=O	-3	-6
C#CCOCC(O)CN(Cc1ccc(F)cc1F)CC1CC(c2ccccc2C)=NO1 (stereo unspecified)	-4	2
CCc1ccc(-c2c(-c3ccccc3)ncn2CCCO)nc1	1	0
COc1cc2c(cc1CNC(=O)c1cnn3ccn(C)c13)OCCO2	-2	-4
Cc1cc(C(=O)Cn2nc(-c3cccs3)oc2=O)c(C)n1C1CC1	8	9
CC(C)CN1CCCC1(C)C(=O)NCCc1ccccn1 (stereo unspecified)	-5	-5
CC(C)COCCCNC(=O)C1CCN(C(=O)c2ccc(F)cc2)CC1	4	9
CCOc1ccc(CN(CCc2c[nH]c3ccccc23)C(=O)CN(CCOC)C(=O)c2cccc(F)c2)cc1	18	21
CCCn1c(=O)c2c(nc3n2CCN3c2ccc(OC)cc2)n(C)c1=O	0	-2
O=C(NNS(=O)(=O)c1ccccc1-c1ccccc1)C1CCCC1	3	-7
CC1(C)O[C@@H]2C[C@@](OCc3ccccc3)(C(=O)NCCN3CCCC3)CC(OCc3cccc(C(F)(F)F)c3)[C@@H]2O1 (stereo partly specified)	7	19
CCC(=O)C1=C(c2cccs2)N(C(=O)CC)n2c(nnc2-c2ccccc2)S1	5	2
O=C(/C=C/c1ccccc1)N1CCCC(CCC(=O)N2CCN(Cc3ccccc3)CC2)C1 (stereo unspecified)	14	8
C=CCC(O)(CC=C)c1ccc(CN(Cc2cccc(F)c2)CC2CCCO2)o1 (stereo unspecified)	-6	15
Cc1ccccc1-n1nc2c(c1NC(=O)C13CC4CC(CC(C4)C1)C3)CS(=O)(=O)C2	-3	-5
Cc1cn(CC(=O)N2CCC3(CCCN(C)CC3)CC2)c(=O)[nH]c1=O	14	11

Bioassay records from PubChem BioAssay.
